# LANA-H2A inh = blocks KSHV LANA binding to histone H2A/H2B; Q9QR71; cell-free LANA-H2A/H2B peptide, fluorescence polarization; inhibition, % (test concentration not listed); 0.6% of 320,000 active; AID 2629; in the data active means inhibition mostly above about 10%, no sharp cut-off; inactive means mostly below about 6.7%;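 further: stock transfer was 7.5 nL into about 10 µL; 0% = median of vehicle wells and 100% = median of positive control wells; one replicate is shown; the record names a cut of 25% in any replicate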
# Target sequence (Q9QR71 whole entry, looked up): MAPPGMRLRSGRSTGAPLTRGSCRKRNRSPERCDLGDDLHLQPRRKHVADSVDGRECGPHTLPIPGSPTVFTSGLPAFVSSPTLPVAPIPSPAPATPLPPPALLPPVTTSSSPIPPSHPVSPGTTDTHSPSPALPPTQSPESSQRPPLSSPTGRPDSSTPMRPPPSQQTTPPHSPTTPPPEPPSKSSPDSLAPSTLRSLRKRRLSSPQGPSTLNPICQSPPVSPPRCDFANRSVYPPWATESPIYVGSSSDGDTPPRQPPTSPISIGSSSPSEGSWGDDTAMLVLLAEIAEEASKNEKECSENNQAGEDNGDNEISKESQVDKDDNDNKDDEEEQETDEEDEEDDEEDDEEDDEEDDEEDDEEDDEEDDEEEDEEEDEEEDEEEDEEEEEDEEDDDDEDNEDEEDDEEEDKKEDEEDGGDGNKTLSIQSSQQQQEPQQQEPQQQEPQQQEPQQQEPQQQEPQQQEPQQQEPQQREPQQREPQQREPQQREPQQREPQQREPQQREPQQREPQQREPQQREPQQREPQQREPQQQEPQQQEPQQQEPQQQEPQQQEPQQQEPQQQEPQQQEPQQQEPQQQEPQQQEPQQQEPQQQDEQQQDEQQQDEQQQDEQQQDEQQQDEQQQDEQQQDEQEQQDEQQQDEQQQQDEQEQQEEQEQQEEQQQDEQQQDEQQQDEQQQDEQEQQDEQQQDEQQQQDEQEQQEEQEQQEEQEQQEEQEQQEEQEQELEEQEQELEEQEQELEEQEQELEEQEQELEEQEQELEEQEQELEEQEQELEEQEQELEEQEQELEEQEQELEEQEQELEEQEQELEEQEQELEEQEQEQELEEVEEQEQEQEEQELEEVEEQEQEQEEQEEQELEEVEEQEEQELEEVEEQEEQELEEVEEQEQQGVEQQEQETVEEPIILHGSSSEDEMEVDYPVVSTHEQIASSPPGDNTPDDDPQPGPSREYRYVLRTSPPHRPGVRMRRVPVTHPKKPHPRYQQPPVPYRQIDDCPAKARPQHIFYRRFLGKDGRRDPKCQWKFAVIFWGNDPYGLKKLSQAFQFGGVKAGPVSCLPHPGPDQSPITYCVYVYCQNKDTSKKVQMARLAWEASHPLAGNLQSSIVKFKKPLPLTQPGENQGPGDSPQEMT
# Calb FLC = C. albicans growth modulation with fluconazole; C. albicans CaCi-2 (fluconazole-resistant clinical isolate) + fluconazole, Alamar Blue growth, 48 h; AID 1979; growth inhibition, % (concentration not given with the values); 0.57% of 300,000 active;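 active means most replicates above 75%; inconclusive means exactly half above 75%; inactive means most below 75%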;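 further: all wells also contain fluconazole at 8 µg/ml as a sub-toxic cotreatment; 0% = median of DMSO wells and 100% = median of geldanamycin control wells; wells of about 8 µL received 7.5 nL stock; the first replicate is given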
# Beta2AR agonist = agonists of human beta-2 adrenergic receptor inducing internalization. P07550. Am2.2-beta2AR cells, FAP receptor internalization, flow cytometry; reference of the scale not given here. response, % (no concentration beside the values). 0.43% of 340,000 active;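 active means response above a set limit, near 3 SD of response in nonfluorescent compounds, cut at about 42% in these data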;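 further: stock transfer was 100 nL into about 11 µL; a reference agonist was the positive control; negative values mostly stem from fluorescent compounds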
# RanGTP-Impb inh = inhibitors of RanGTP-importin-beta interaction, primary screen, biochemical, FRET, CFP-Ran, YFP-importin-beta, homogeneous; 1.1% of 300,000 active; cell-free CFP-Ran/YFP-importin-beta FRET ratio; AID 2216; inhibition, % (no concentration beside the values);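 active means most replicates above 15%; inconclusive means exactly half above 15%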;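 further: 0% = DMSO wells and 100% = Ran loaded with GDP instead of GTP; wells of about 40 µL received 100 nL stock; the first replicate is given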
# Beta apoptosis = blocks beta cell apoptosis. 0.8% of 300,000 active. AID 435005. INS-1E cytokine-induced death, ATP luminescence, 48 h; percent of positive-control rescue, neutral wells zero. protection from apoptosis, % (concentration not given with the values);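 active means all replicates at 75% or more, or half of them and the mean; inconclusive means half reach 75% but not the mean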;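 further: 0% = cytokine-treated negative control wells and 100% = positive control rescue; higher means more ATP so stronger rescue from cytokine killing; wells of about 40 µL received 100 nL stock; the first replicate is given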
# A1 inh = inhibitors of the anti-apoptotic protein A1, read as caspase activation; MEF A1-2A-BIM cells, Caspase-Glo 3/7 luminescence, 3 h; percent of clofoctol response, vehicle zero; caspase activation, % (test concentration not listed); 0.066% of 330,000 active; AID 2462;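 active means over half of replicate activation scores above 10%, or exactly half above 10 with the replicate mean above 10; inconclusive means replicate mean below 10 yet half the replicates above 10; inactive means over half of replicates below 10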;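 further: wells of about 30 µL received 50 nL stock; many hits fall short of the cut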
# T cruzi inh = T. cruzi replication inhibition. T. cruzi beta-gal in NIH3T3, luminescence, 90 h. inhibition, % (concentration not given with the values). 1.4% of 300,000 active;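 active means mean inhibition across valid replicates above about 55%, limit read from the data; inconclusive means mean below that limit but half or more replicates reach it; inactive means mean below it, under half of replicates reach it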;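 further: signal also drops with host cell toxicity which is not excluded here; 0% = plate median of DMSO wells and 100% = zero luminescence signal; higher percent means less beta-gal luminescence so fewer parasites; stock transfer was 50 nL into about 50 µL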
# UCH37 DUB inh = inhibitors of human deubiquitinating enzyme UCH37; purified proteasome/UCH37, Ub-AMC cleavage fluorescence; inhibition, % (no concentration beside the values); 0.33% of 330,000 active; AID 588478;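 active means mean of two replicates above 20%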;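 further: 0% = compound-free wells with enzyme and 100% = wells lacking proteasome; stock transfer was 100 nL into about 20 µL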
#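 assay system = human UCH37 enzyme supplied as purified proteasome complex | amount = proteasome at 0.15 nM in the dispensed enzyme solution | schedule = 30 min compound-proteasome preincubation then 25 min substrate reaction, room temperature | measured by = fluorescence, ex 355 nm, em 460 nm | benchmarks = no-proteasome wells (full inhibition) and compound-free wells (no inhibition)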
# An asterisk follows results filed as active; u = inconclusive; x = no result given.
[1] CC(C)C[C@@H](NC(=O)C1CCC(CNC(=O)[C@@H]2CCCN2C(=O)OC(C)(C)C)CC1)C(=O)O (stereo partly specified)
[2] O=C(c1ccccc1)c1c(O)nc(-c2ccccc2)n(-c2ccccc2)c1=O
[3] COc1ccc(CCNc2oc(COc3ccc(F)cc3)nc2C#N)cc1
[4] CC(C)(C)c1nnc(NC(=O)CCn2cnc3ccccc3c2=O)s1
[5] Cc1ccccc1CN1C(=O)C(O)(CC(=O)c2ccncc2)c2ccccc21 (stereo unspecified)
[6] CN(CC(=O)Nc1cccc(F)c1)C(=O)c1cccc(S(=O)(=O)N2CCN(c3ccccc3)CC2)c1

Compound,1,2,3,4,5,6
LANA-H2A inh,3.0,-6.0,-1.6,6.2,-0.5,-3.0
Calb FLC,-13.9,23.9,x,45.0,-44.0,-10.4
Beta2AR agonist,10.5,0.1,19.5,-5.1,2.0,0.5
RanGTP-Impb inh,u,-2.1,x,0.0,-0.3,u
Beta apoptosis,-4.3,-2.3,-6.1,1.1,-4.9,15.6
A1 inh,-0.6,-0.7,-1.1,-0.8,0.2,-0.1
T cruzi inh,-2.2,3.5,x,1.0,2.0,9.5
UCH37 DUB inh,3.6,5.5,6.8,5.5,2.1,0.3

[7] COc1ccc(Cc2nnc(NC(=O)CS(=O)(=O)Cc3ccccc3)s2)cc1
[8] CC1=CC(c2ccccc2)n2nc(NC(=O)CCC(=O)O)nc2N1 (stereo unspecified)
[9] CC(=O)N(Cc1ccco1)Cc1cc2cccc(C)c2n2nnnc12
[10] COc1ccc(C(=O)Nc2ccc(OCC(F)(F)C(F)F)c(C(F)(F)F)c2)cc1OC
[11] O=C(Nc1nc2n(n1)C(c1ccccc1)CC(c1ccc(Cl)cc1)N2)c1ccco1 (stereo unspecified)
[12] CCOC(=O)C1=NN(C(=O)Cc2ccccc2)C(O)(c2ccc(Cl)cc2)C1 (stereo unspecified)

Compound,7,8,9,10,11,12
LANA-H2A inh,4.5,-1.7,-0.8,2.0,-0.5,4.2
Calb FLC,6.1,-3.5,-0.1,-0.1,6.2,-1.5
Beta2AR agonist,0.6,-5.5,x,0.0,-6.5,12.7
RanGTP-Impb inh,6.4,3.1,-2.7,-0.1,10.2,1.3
Beta apoptosis,-7.5,-6.5,2.4,10.7,x,1.5
A1 inh,0.6,-0.2,-0.6,-0.8,0.2,0.2
T cruzi inh,-3.5,-7.3,11.5,47.6,-1.4,-11.1
UCH37 DUB inh,-2.2,-483.7,0.8,5.4,2.9,2.9

[13] Cc1cc(Cl)ccc1NC(=O)CSc1nnc(-c2ccncc2)n1Cc1ccco1
[14] C=CCc1cccc2ccc(=O)oc12
[15] COc1cc(/C=N/NC(=O)CSc2ccccn2)ccc1O
[16] CCOC(=O)c1[nH]c2ccc(OCC)cc2c1NC(=O)CN1CCC2(CC1)OCCO2
[17] COc1cc(/C=N/NC(=O)c2cc(C)oc2C)cc(OC)c1OC
[18] CN1CCN(NC(=O)c2ccc(Br)s2)CC1

Compound,13,14,15,16,17,18
LANA-H2A inh,-1.6,x,-2.7,2.5,-1.3,-10.7
Calb FLC,12.0,x,-8.1,5.1,0.1,-7.9
Beta2AR agonist,-1.8,-206.7,13.2,-6.1,7.8,-0.6
RanGTP-Impb inh,-2.3,3.4,0.5,2.4,-2.7,2.0
Beta apoptosis,1.4,-5.4,-1.7,6.6,-2.9,-10.9
A1 inh,-0.4,0.1,-0.2,0.3,0.0,0.5
T cruzi inh,-10.6,-6.1,1.1,15.5,-15.5,21.5
UCH37 DUB inh,-0.3,4.8,x,-117.2,x,3.5

[19] COc1ccccc1CNC(=O)CN1C(=O)NC2(CCCc3ccccc32)C1=O (stereo unspecified)
[20] Cc1ccc(NS(=O)(=O)c2ccc(C(=O)NCc3ccc(S(N)(=O)=O)cc3)cc2)cc1
[21] COc1ccc(OCC(O)COc2ccc(C(=O)O)cc2)cc1 (stereo unspecified)
[22] O=C(COC(=O)c1ccccn1)Nc1nccs1
[23] O=c1cc(O)c2c(=O)[nH]c(=O)n(-c3ccccc3)c2[nH]1
[24] C=CC(=O)NCC1OCCc2ccccc21 (stereo unspecified)

Compound,19,20,21,22,23,24
LANA-H2A inh,0.3,1.6,2.6,-2.4,2.2,-7.9
Calb FLC,x,x,-17.1,-5.4,6.5,-1.6
Beta2AR agonist,-8.1,3.8,-2.6,-0.3,2.5,1.1
RanGTP-Impb inh,x,x,1.3,1.5,-1.8,u
Beta apoptosis,-0.4,-3.2,-0.9,-2.6,-4.1,0.4
A1 inh,-0.3,-0.3,0.6,-0.3,0.6,0.2
T cruzi inh,x,x,-11.4,-7.2,x,-3.3
UCH37 DUB inh,1.8,4.1,-1.7,1.0,1.6,5.8

# Full records as entered above.
# `COc1ccc(C(=O)Nc2ccc(OCC(F)(F)C(F)F)c(C(F)(F)F)c2)cc1OC` across the screens: LANA-H2A inh: 2.0; Calb FLC: -0.1; Beta2AR agonist: 0.0; RanGTP-Impb inh: -0.1; Beta apoptosis: 10.7; A1 inh: -0.8; T cruzi inh: 47.6; UCH37 DUB inh: 5.4
# `COc1ccc(OCC(O)COc2ccc(C(=O)O)cc2)cc1` (stereo unspecified) across the screens: LANA-H2A inh: 2.6; Calb FLC: -17.1; Beta2AR agonist: -2.6; RanGTP-Impb inh: 1.3; Beta apoptosis: -0.9; A1 inh: 0.6; T cruzi inh: -11.4; UCH37 DUB inh: -1.7

# Next part:
[25] CC1CCN(C(=O)COC(=O)c2cc(Cl)c3c(c2)OCO3)CC1
[26] COc1ccc(OCC(=O)N2CCN(C(=O)c3ccc([N+](=O)[O-])cc3)CC2)cc1
[27] Cc1cccc(CC(=O)NCCn2c(C)cc3ccccc32)c1
[28] CCCCCC(=O)Nc1nc(C)c(-c2csc(Nc3ccccc3OCC)n2)s1

Compound,25,26,27,28
LANA-H2A inh,5.3,0.6,-2.4,3.8
Calb FLC,x,14.9,-5.2,-3.9
Beta2AR agonist,6.6,4.2,-9.8,-2.9
RanGTP-Impb inh,x,-11.0,-2.0,-1.8
Beta apoptosis,3.1,-0.4,-0.1,0.6
A1 inh,-2.7,0.5,-0.2,-1.4
T cruzi inh,x,-7.6,22.5,-5.3
UCH37 DUB inh,5.2,2.5,1.6,1.4

# Filtered by structure: the compounds so far with an aryl thioether with sulfur outside any ring
[13] Cc1cc(Cl)ccc1NC(=O)CSc1nnc(-c2ccncc2)n1Cc1ccco1
[15] COc1cc(/C=N/NC(=O)CSc2ccccn2)ccc1O

Compound,13,15
LANA-H2A inh,-1.6,-2.7
Calb FLC,12.0,-8.1
Beta2AR agonist,-1.8,13.2
RanGTP-Impb inh,-2.3,0.5
Beta apoptosis,1.4,-1.7
A1 inh,-0.4,-0.2
T cruzi inh,-10.6,1.1
UCH37 DUB inh,-0.3,x
